VDR inh = vitamin D3 receptor (human) inhibition | Potency, µM, inactives show max response, negative = inhibition, most hits filed as inhibitors | VDR-SRC2-3 peptide fluorescence polarization, 2 h | 400,000 tested, 0.93% active | P11473; active = well fitted inhibition curve with a large enough effect; inconclusive = small, poorly fitted or top-dose-only effect, or another doubt; inactive = no such curve, though single readings can be large or run the other way; also: series mostly up to about 120 µM
Target sequence (P11473 whole entry, looked up): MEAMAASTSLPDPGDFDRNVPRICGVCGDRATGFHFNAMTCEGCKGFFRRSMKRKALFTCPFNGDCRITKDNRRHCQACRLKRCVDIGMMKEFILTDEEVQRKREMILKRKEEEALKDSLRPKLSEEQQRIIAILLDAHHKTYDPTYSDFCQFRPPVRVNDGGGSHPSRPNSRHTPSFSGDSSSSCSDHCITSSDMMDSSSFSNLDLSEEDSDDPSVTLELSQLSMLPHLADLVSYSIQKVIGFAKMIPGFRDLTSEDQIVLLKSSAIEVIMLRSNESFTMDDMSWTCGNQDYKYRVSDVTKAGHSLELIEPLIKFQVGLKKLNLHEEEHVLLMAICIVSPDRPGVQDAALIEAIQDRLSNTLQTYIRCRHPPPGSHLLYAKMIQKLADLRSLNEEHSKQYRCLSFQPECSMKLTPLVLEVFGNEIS
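Inhibition of the VDR/SRC2-3 peptide interaction is quantified by fluorescence polarization. Compounds (23 nl, pintool) incubate with the reagents for 2 hours at ambient room temperature.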
Numbers without * were called inactive; ? = inconclusive; & = joins results of further samples; [ ] = another dose, or the depositor's remark. % is scaled to controls: 0 for no effect and ±100 for the full control effect; potency is read from the fitted curve at half-maximal effect. Only part of the results is shown; rates above refer to the full screens.

SMILES | VDR inh
COc1ccc(-n2nc(C(=O)O)cc2-c2ccccc2)cc1 | -23%
COc1ccccc1OCCNC(=O)c1cc(SC)ccc1Cl | -1%
Clc1ccc2c(c1)CNc1c(ncnc1N1CCOCC1)O2 | -16%
CCCCOC(=O)CSC1=C(C#N)C(c2ccc3c(c2)OCO3)CC(=O)N1 (stereo not drawn) | 11%
COc1ccc(C2C(=O)N(C3CCCCC3)CC(=O)N2CCC2=CCCCC2)cc1 (stereo not drawn) | -7%
Cc1cc2ccccc2c(=O)n1CC(=O)NCC(=O)N(C)Cc1ccccc1 | 18%
CC(=O)c1cccc(NC(=O)C(C)OC(=O)C2CCC2)c1 (stereo not drawn) | 7%
O=C(Nc1ccccc1Cl)N1C2CCC1CC(O)(c1cccnc1)C2 (stereo not drawn) | -2%
COc1ccc(C2Nc3ccccc3C(=O)N2Cc2ccco2)cc1 (stereo not drawn) | -21%
CC(C)CN(C(=O)COC(=O)CCSc1ccc(F)cc1)c1c(N)n(Cc2ccccc2)c(=O)[nH]c1=O | ?
Cc1nc(SCc2cc(=O)c3cccc(F)c3[nH]2)n[nH]1 | 5%
CCOc1ccc(S(=O)(=O)N(C)c2ccc(OCC(=O)OCc3c(C)noc3C)cc2)cc1 | 9%
O=C(Nc1cccc(Cl)c1)c1ccc(NC2=NC3CS(=O)(=O)CC3S2)cc1 (stereo not drawn) | -4%
O=C(Nc1c(C(=O)N2CCOCC2)cnn1-c1ccccc1)c1ccc([N+](=O)[O-])cc1 | 5%
O=C(COC(=O)c1nc(Cl)ccc1Cl)c1ccccc1Cl | -20%
COc1cc(SC)ccc1C(=O)N1CCCc2ccccc21 | -18%
COc1ccccc1C(=O)Nc1nnc(S(=O)(=O)N(C)Cc2ccccc2)s1 | 7%
O=C(CN1C(=O)CCc2cc(Br)ccc21)Nc1ccc(OC(F)(F)F)cc1 | 0%
CCOC(=O)/C(C#N)=C/c1ccc(OCC(=O)Nc2cc(C)ccc2C)c(OC)c1 | -10%
COC(=O)Cn1c(=NC(=O)c2cc(-c3cccs3)nc3ccccc23)sc2cc(S(N)(=O)=O)ccc21 | 10%
COc1ccc(C(=O)OCC(=O)N2CC(=O)Nc3ccccc32)cc1Br | -7%
CN(C)CCOc1ccc2ccccc2c1 | -10%
COc1nc2c(c(-c3cc(Br)cs3)c1C#N)Cc1ccccc1-2 | -25%
CC(c1ccccc1)C1CC(=O)N(c2ccccc2)C1=O (stereo not drawn) | -10%
N#Cc1nc(-c2ccc(OCc3ccccc3)cc2)oc1NCc1ccco1 | 3%
CCOC(=O)C1=C(C)NC2=C(C(=O)CC(C)(C)C2)C1c1ccc(O)c(OCC)c1 (stereo not drawn) | 98%[activator]
O=C(Cn1nc(C(=O)O)c2ccccc2c1=O)NC12CC3CC(CC(C3)C1)C2 | -20%
COc1ccc2c(c1)C(C)=CC(C)(C)N2C(=O)CNCc1ccc2c(c1)OCO2 | 8%
CCn1nc(NS(=O)(=O)c2ccc([N+](=O)[O-])cc2)c2cc3cccc(C)c3nc21 | 0%
COCc1[nH]nc2c1C(c1ccccc1Cl)C(C#N)=C(N)O2 (stereo not drawn) | 14%
COc1ccccc1CNC(=O)Nc1cccs1 | -15%
Cc1ccc2c(c1)Oc1ccc([N+](=O)[O-])cc1C(=O)N2 | -9%
Cc1cc(-c2ccccc2)n2nc(-c3ccc(Cl)cc3)cc2n1 | -2%
CCOc1ccccc1OCC(O)CNC (stereo not drawn) | 8%
COc1ccc(C)cc1C(=O)CCC(=O)NC1CCCCC1 | -9%
CC(C)(C)OC(=O)N1CCC[C@H]1C(=O)NCC1CCC(C(=O)O)CC1 (stereo partly drawn) | -1%
NS(=O)(=O)c1ccc(CCNCC(=O)NC2CC2)cc1 | 16%
O=S(=O)(c1cccs1)n1nnc2ccccc21 | -2%
COCCN(C(=O)C(C)C)c1nnc(-c2ccc(C)cc2)s1 | 7%
CCOc1ccccc1C(=O)NCC(c1ccc(N(C)C)cc1)N1CCCC1 (stereo not drawn) | 3%
Cc1csc(=O)n1CC(=O)OCC(=O)NCc1ccc(F)cc1 | 2%
CCO[C@@H]1OC(C(=O)N2CCOCC2)=C[C@H](c2ccc(Br)cc2)[C@H]1CCCO | 6%
Cc1cccc(Cn2c(C)c(C)c3cc(C(=O)NCc4ccc(C)o4)ccc32)c1 | 0%
CCCNc1c(NC(C)=O)c(=O)oc2ccccc12 | 2%
COC(=O)c1ccc(C(=O)Nc2ccc3nc(-c4cccnc4)[nH]c3c2)cc1 | 0%
Cc1cccc(-c2nc(CSCC(=O)NCc3cccs3)c(C)o2)c1 | -7%
N#Cc1ccc(/C=C/C(=O)c2ccccc2)cc1 | 14µM*
COc1ccc(CCNC(=O)Cc2c(C)c3c(cc(C)c4c(C)coc43)oc2=O)cc1OC | -3%
O=c1cc(CN2CCN(S(=O)(=O)/C=C/c3ccccc3)CC2)c2ccc(O)cc2o1 | -3%
COc1cccc(CNn2cnnc2)c1O | 10%
COc1cc(C2C(=O)N(C3CCCCCC3)CC(=O)N2CCC2=CCCCC2)ccc1OC(C)C (stereo not drawn) | 13%
COc1ccc(C(=O)N(c2ccc(OC)cc2)S(=O)(=O)c2cccs2)cc1 | 4%
NS(=O)(=O)c1ccc(CCNC(=O)COC(=O)/C=C/c2ccc(OC(F)F)cc2)cc1 | 10%
Cc1ccccc1SCC(=O)OCC(=O)N1CC(=O)Nc2ccccc21 | -14%
c1ccc(-c2noc(-c3cccnc3)n2)nc1 | -9%
NNC(=O)c1nc(Cl)c(Cl)c(N)c1Cl | -5%
Cc1nc(CNS(=O)(=O)c2ccc3c(c2)CCCC3)cs1 | -15%
CCOC(=O)c1sc(NC(=O)CSc2nc3c(c(=O)n2-c2ccc(C)cc2)SCC3)c(C(=O)OCC)c1C | -8%
COC(=O)c1ccc(NC(=O)CCN2CCN(Cc3ccccc3)CC2)cc1 | 9%
Cc1ccc(C2C(C(=O)O)c3ccccc3C(=O)N2C)o1 (stereo not drawn) | 9%

Next part:
SMILES | VDR inh
O=C(OCc1ccccc1)c1cccnc1Cl | 2%
COc1cc2oc(=O)cc(-c3ccc(-c4ccc(CO)cc4)cc3)c2c(OC)c1OC | -9%&-1%
Clc1ccc(CNCCC2=CCCCC2)cc1 | -2%
OC(CN1CCN(Cc2ccccc2)CC1)c1ccccc1 (stereo not drawn) | -19%
Fc1ccc(CN2CCSCC2)cc1Br | -3%
COc1ccc(C2=NOC(C(=O)Nc3ccc(C(C)=O)cc3)C2)cc1OC (stereo not drawn) | -11%
Nc1nnc(COc2ccc(Br)cc2Br)s1 | -9%
COc1cccc(C2C(C(=O)c3cccs3)=C(O)C(=O)N2CCN(C)C)c1OC (stereo not drawn) | -17%
CCOc1cc(/C=N/NC(=O)CSc2nncn2C)ccc1OCc1ccccc1 | -9%
CC(C)C(=O)Nc1ccc(C(=O)NNC(=O)c2cccs2)cc1 | 4%
COc1ccc(Nc2nc(N3CCN(S(=O)(=O)N(C)C)CC3)nc3ccccc23)cc1 | 5%
c1ccc(OCCn2cnc3ccccc32)cc1 | 0%
Cc1ccc(C(=O)N2CCN(Cc3ccccc3)CC2)cc1S(=O)(=O)N1CCOCC1 | -4%
COC(=O)c1sccc1-n1cccc1C(=O)N1CCOCC1 | 2%
CCC(=O)Oc1oc(-c2ccccc2)nc1C=Nc1ccccc1OC | -22%
COc1ccc(OC)c2c(N)c(C#N)c(C(F)(F)C(F)(F)F)nc12 | 4%
O=S(=O)(CCSc1nc2ccccc2s1)c1nc2ccccc2s1 | 21%
Cc1nn(CCc2n[nH]c(=S)n2C2CCCCC2)c(C)c1Br | 1%
Cc1cc(NC(=O)C(C)SCC(=O)Nc2ccccc2OC(F)F)no1 (stereo not drawn) | -11%
O=C(O)CC1(CC(=O)N2CCN(CCO)CC2)CCCC1 | -6%
COc1ccc(CCNc2nc(-c3ccc(Cl)cc3)cc(C(F)(F)F)n2)cc1OC | 0%
CCc1sc(N(C(=O)Cc2ccccc2)c2ccccc2)nc1-c1ccccc1 | 26%
NC(=O)CC(NC(=O)Cc1ccc(Br)cc1)c1ccc(NC2CC3CCC2C3)c([N+](=O)[O-])c1 (stereo not drawn) | 1%
Oc1c(Br)cc(Br)cc1C=NCc1ccc(F)cc1 | -6%
O=C(OCc1ccc([N+](=O)[O-])cc1)C1CCN(S(=O)(=O)c2ccccc2)CC1 | -16%
O=C(c1ccc(Cl)cc1)n1nc(-c2cccnc2)nc1NCc1ccc(F)cc1 | 8%
CCN(CC(=O)Nc1cc(Cl)ccc1C)C(=O)COc1ccccc1F | -17%
CCS(=O)(=O)c1ncc(N(Cc2ccccc2)Cc2ccco2)c(C(=O)Nc2cccc(Cl)c2C)n1 | -6%
CN(C)c1ccc(-c2noc(C3CCN(S(=O)(=O)c4cccc(C(=O)O)c4)CC3)n2)cc1 | 4%
COC(=O)c1cc(Cl)ccc1NC(=O)Cn1c(C)cc(C)c(C#N)c1=O | -17%
CCOC(=O)C1CCCN(c2ncnc3c2cnn3-c2ccc(Cl)cc2)C1 (stereo not drawn) | 3%
O=C1c2[nH]nc(-c3ccccc3O)c2C(c2ccc(Cl)cc2)N1Cc1ccco1 (stereo not drawn) | 4%
Cc1[nH]c2ccccc2c1SCCNC(=O)c1ccccc1F | -3%
COc1cccc(N2C(=O)C3CCCN3C2c2ccc(F)cc2)c1 (stereo not drawn) | -9%
CCn1c(CC(=O)Nc2ccccc2)nnc1SCC(=O)Nc1nnc(C)s1 | 5%
COc1cccc(-n2nnnc2SCC(=O)NCc2ccco2)c1 | -1%
O=C(CSc1nc(=O)n(Cc2ccncc2)c2c1CCC2)Nc1ccccc1 | 18%
CCN(CC)S(=O)(=O)c1ccc(NCc2ccccn2)nc1 | -14%
O=C1NC(=O)C(=C2CCCCCC2)S1 | -7%
Cc1cc(C(=O)COC(=O)c2ccc(CO)cc2)c(C)n1CC1COc2ccccc2O1 (stereo not drawn) | 10%
O=C(CSc1ncccc1C(=O)O)NC1CCCCCCC1 | -26%
COc1cccc(CN2CCN(C(=S)NCc3ccc(Cl)cc3)CC2)c1 | -2%
CC1CCCCC1NC(=O)COC(=O)CCC(=O)c1cccs1 (stereo not drawn) | -4%
COc1ccc(CN(C)C(=O)c2ccc(NS(=O)(=O)c3ccc(F)cc3)cc2)c(OC)c1 | -10%
CCCCNc1cc(NC(C)=O)cc2cc(OC)c(OC)cc12 | 13%
CCOC(=O)C(=CNc1ccc2c(c1)c1ccccc1n2CC)C(=O)OCC | -19%
CCC1CC=CC2C1C(=O)N(Cc1ccccc1)C2c1cccc([N+](=O)[O-])c1 (stereo not drawn) | ?
CSc1ccc(S(=O)(=O)NCCCn2ccnc2)cc1 | -10%
COC(=O)c1cc(Oc2ccc(C(=O)OC)cc2N)cc(C(=O)OC)c1 | 0%
COC(=O)c1ccccc1NC(=O)C1CCCN(c2nnc(C)c3c(C)n(-c4ccccc4)nc23)C1 (stereo not drawn) | 6%
Cc1nnc(SCC(=O)Nc2nccs2)o1 | -8%
O=c1c2ccccc2cnn1Cc1n[nH]c(=S)n1-c1ccccc1F | -5%
CC(C)Oc1ccc(CNC(=O)Cn2ncn3nc(-c4cccs4)cc3c2=O)cc1 | -1%
N#CCCn1cc(C(=O)Nc2ccc([N+](=O)[O-])cc2)c(-c2cccs2)n1 | 16%
COc1ccc(COC(=O)NNC(=O)c2ccccc2Cl)cc1 | 1%
Cc1ccc(NC(=O)CSc2nnc(N)s2)c([N+](=O)[O-])c1 | -4%
CCOc1ccc(N(C(=O)c2ccc(OC)cc2)S(=O)(=O)c2ccc3c(c2)n(C)c(=O)n3C)cc1 | 3%
CCOC(=O)C1C(=O)NC(c2ccccc2)=NC1c1ccc(C(C)C)cc1 (stereo not drawn) | -3%
Cc1ccc2nc(C(=O)N3CCc4c([nH]c5ccccc45)C3c3ccccn3)cn2c1 (stereo not drawn) | -2%
COc1ccc(C2c3[nH]c4ccccc4c3CCN2C(=O)CCC2CCCC2)cc1 (stereo not drawn) | 15%

(more compounds)
SMILES | VDR inh
CCNC(=O)NC(=O)C(C)OC(=O)CCS(=O)(=O)c1ccc(C)cc1 (stereo not drawn) | -2%
O=C(CCSCc1ccccc1Cl)N1CCN(c2ccc(F)cc2)CC1 | 1%
NC(=O)C1CCN(c2oc(-c3ccccc3)nc2S(=O)(=O)c2ccc(Br)cc2)CC1 | -25%
CC1=C(CC(=O)NCC(=O)NCC(=O)O)c2cc(F)ccc2/C1=C/c1ccc(S(C)=O)cc1 (stereo not drawn) | -3%

Ordered by heavy-atom count (lowest first): some entries from above.
SMILES | VDR inh
NNC(=O)c1nc(Cl)c(Cl)c(N)c1Cl | -5%
Fc1ccc(CN2CCSCC2)cc1Br | -3%
Cc1nnc(SCC(=O)Nc2nccs2)o1 | -8%
Cc1ccc(C2C(C(=O)O)c3ccccc3C(=O)N2C)o1 (stereo not drawn) | 9%
Clc1ccc2c(c1)CNc1c(ncnc1N1CCOCC1)O2 | -16%
Cc1cc(-c2ccccc2)n2nc(-c3ccc(Cl)cc3)cc2n1 | -2%
O=C(Nc1ccccc1Cl)N1C2CCC1CC(O)(c1cccnc1)C2 (stereo not drawn) | -2%
N#CCCn1cc(C(=O)Nc2ccc([N+](=O)[O-])cc2)c(-c2cccs2)n1 | 16%
CCOC(=O)C1CCCN(c2ncnc3c2cnn3-c2ccc(Cl)cc2)C1 (stereo not drawn) | 3%
COC(=O)c1ccc(NC(=O)CCN2CCN(Cc3ccccc3)CC2)cc1 | 9%
COc1ccc2c(c1)C(C)=CC(C)(C)N2C(=O)CNCc1ccc2c(c1)OCO2 | 8%
CCOc1cc(/C=N/NC(=O)CSc2nncn2C)ccc1OCc1ccccc1 | -9%
NS(=O)(=O)c1ccc(CCNC(=O)COC(=O)/C=C/c2ccc(OC(F)F)cc2)cc1 | 10%
CCOc1ccc(S(=O)(=O)N(C)c2ccc(OCC(=O)OCc3c(C)noc3C)cc2)cc1 | 9%
COc1cc(C2C(=O)N(C3CCCCCC3)CC(=O)N2CCC2=CCCCC2)ccc1OC(C)C (stereo not drawn) | 13%
COC(=O)c1ccccc1NC(=O)C1CCCN(c2nnc(C)c3c(C)n(-c4ccccc4)nc23)C1 (stereo not drawn) | 6%
